Mtb growth – M. tuberculosis H37Rv growth inhibitors, H37Rv strain (AID 1626) | M. tuberculosis H37Rv growth inhibition; higher % means a stronger effect | inhibition, % at 10 µM, or IC50 in µM where a hit was titrated | actives 0.95% (n = 220,000);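 active means confirmed in a dose series; inconclusive means inhibition above 80% but not taken into the dose series; inactive means below 80% or under 30% at every dose of the series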;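 further: bacteria incubated seven days before Alamar blue readout; 0% = bacteria only wells and 100% = bacteria with antibiotic wells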
YopH inh – blocks Yersinia enterocolitica YopH tyrosine phosphatase | fluorescence Ex485/Em525 | inhibition, %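 (about 10 µM by stock and volumes)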 | actives 0.16% (n = 140,000);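 active means inhibition of 50% or more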;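 further: controls were vehicle for no effect and minimum signal wells for full effect; inactives centre near -20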
Mtb betalactam – beta-lactam sensitization of Mtb H37Rv; inhibition, % at 25 µM; actives 0.27% (n = 330,000); AID 434955; M. tuberculosis H37Rv growth with meropenem, percent inhibition; hits of this screen are not shown here;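 active means about 74% or more and at least 40 points above the plate without the antibiotic, then above 30% in a dose series; inconclusive means first-round hits that could not be retested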;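 further: growth measured after seven days incubation then overnight dye step; 0% = bacteria only wells and 100% = bacteria with antibiotic; twin plates without the antibiotic show which effects depend on it; some results filed as inactive read as strong as hits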
RecA splice inh – Mtb RecA intein splicing inhibition; cell-free RecA intein splicing, fluorescence; inhibition, %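 (about 9 µM by stock and volumes)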; actives 0.75% (n = 290,000); AID 2221; in the data active means inhibition above about 30%; inconclusive means no clear call, values can overlap the other calls;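 further: 0% = vehicle wells and 100% = reference inhibitor control wells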
Target sequence (P9WHJ3 whole entry, looked up, canonical isoform): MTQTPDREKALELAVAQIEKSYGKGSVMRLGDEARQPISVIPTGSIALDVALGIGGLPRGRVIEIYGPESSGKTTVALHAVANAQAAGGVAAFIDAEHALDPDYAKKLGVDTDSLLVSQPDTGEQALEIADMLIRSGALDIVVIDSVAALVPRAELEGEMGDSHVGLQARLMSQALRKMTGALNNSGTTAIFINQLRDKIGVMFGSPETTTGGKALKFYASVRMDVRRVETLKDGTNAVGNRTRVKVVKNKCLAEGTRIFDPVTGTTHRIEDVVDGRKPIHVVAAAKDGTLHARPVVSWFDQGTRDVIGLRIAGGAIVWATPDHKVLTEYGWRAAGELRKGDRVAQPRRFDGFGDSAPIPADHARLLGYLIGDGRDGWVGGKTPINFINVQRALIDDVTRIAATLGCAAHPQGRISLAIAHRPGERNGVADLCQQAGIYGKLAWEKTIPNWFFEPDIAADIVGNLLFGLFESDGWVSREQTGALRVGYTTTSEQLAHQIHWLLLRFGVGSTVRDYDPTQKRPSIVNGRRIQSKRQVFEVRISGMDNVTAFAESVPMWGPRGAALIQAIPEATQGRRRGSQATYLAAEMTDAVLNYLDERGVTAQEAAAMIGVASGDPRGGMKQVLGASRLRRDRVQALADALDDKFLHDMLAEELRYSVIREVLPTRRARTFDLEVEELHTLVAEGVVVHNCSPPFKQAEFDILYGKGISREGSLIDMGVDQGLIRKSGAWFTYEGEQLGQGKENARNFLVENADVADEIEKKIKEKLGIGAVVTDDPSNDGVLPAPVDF
Arbovirus anti – antivirals against arbovirus infection. arbovirus infection cell-based antiviral screen. inhibition, % at 10 µM. actives 0.37% (n = 200,000). AID 1251;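 active means inhibition from about 30%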;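 further: bluetongue infection of BSR cells; cell survival read as ATP light after 72 h; 0% = infected wells without compound and 100% = uninfected wells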
Arbovirus anti repeat – also measured in Arbovirus anti; calls as there; inhibition, %; measured here: 10K subset replicate screen; many hits read low in the repeat;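 first of two repeat runs on a subset; 0% = infected and 100% = uninfected wells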
Active calls of the source: *; ? = inconclusive; / = not tested or not shown. An excerpt. The share of hits here may be higher or lower than overall.

SMILES	Mtb growth	YopH inh	Mtb betalactam	RecA splice inh	Arbovirus anti	others
Cc1ccc(-c2csc(NC(=O)C3=NN(c4ccccc4)C(=O)CC3)n2)cc1	13%	-21	4	2.3	67*
COc1cc2c(cc1OC)C(C)N(C(=O)c1cc3c(=O)oc4ccc(C)cc4c3s1)CC2 (stereo unspecified)	/	-13	-3	-3.0	-1
CCn1cc(C(=O)N[C@@H](CCSC)C(=O)NCCO)c(=O)c2cc3c(cc21)OCO3	/	/	-5	0.0	/
CC(=O)N1CCN(C(=S)Nc2cc(S(=O)(=O)N3CCOCC3)ccc2Cl)CC1	3%	/	-5	4.0	11
COc1ccc(N2CC(C(=O)N3CCCC(C)C3)CC2=O)cc1 (stereo unspecified)	/	/	7	-0.9	/
CCOc1cc(S(=O)(=O)N2CCCCCC2)ccc1F	-5%	-22	3	0.4	-5
CC12CCC(=O)N1C(C(=O)NCc1ccc(Cl)cc1Cl)CS2 (stereo unspecified)	/	/	-4	-2.4	/
Cn1c(CC(=O)NC(C)(C)CO)c(Sc2ccccc2)c2ccccc21	0%	-7	-2	-1.1	-11
COc1ccc(OC)c(NC(=O)COC(=O)c2cc3c(s2)CCC3)c1	0%	/	69	-2.3	10
COc1ccc(N2C(N)=C(C#N)C(c3ccsc3)C3=C2CCCC3=O)c(OC)c1 (stereo unspecified)	6%	-35	-2	-0.5	10
O=C(OC(C(=O)NC1CCCC1)c1ccccn1)c1cccs1 (stereo unspecified)	-7%	25	-1	0.8	1
CCc1ccccc1N(CC(=O)NC(C)c1ccccc1)S(C)(=O)=O (stereo unspecified)	/	/	0	-1.4	/
O=C(Cn1nnc(N2CCCCC2)n1)c1ccc(Cl)c(Cl)c1	6%	/	-5	1.4	/
COc1cc(OC)cc(C(=O)Nc2ccccc2N2CCOCC2)c1	-1%	-30	?	-3.7	-10
COC(=O)CN(C)C(=O)c1ccc(OC)c(OC2CCN(C(C)C)CC2)c1	/	/	1	-3.3	/
CCC(C)(C)n1nnnc1CN(Cc1ccc(Cl)cc1)Cc1ccco1	/	-22	-9	19	-13
COc1cccc(CN2CCN(Cc3cc4ccccc4o3)CC2CCO)c1 (stereo unspecified)	/	/	0	0.0	/
O=C(c1ccsc1)N1CCCC(N2CCOCC2)C1 (stereo unspecified)	/	/	7	-0.3	/
O=C(c1ccccc1)C(c1ccccc1)c1ccccc1	/	/	13	1.2	/
c1ccc(-c2nnc3n2NC(c2ccc4c(c2)OCO4)S3)cc1 (stereo unspecified)	9%	-31	/	-2.1	-3

Compounds listed so far that contain a furan ring, fused or not (2):
SMILES	Mtb growth	YopH inh	Mtb betalactam	RecA splice inh	Arbovirus anti	others
CCC(C)(C)n1nnnc1CN(Cc1ccc(Cl)cc1)Cc1ccco1	/	-22	-9	19	-13
COc1cccc(CN2CCN(Cc3cc4ccccc4o3)CC2CCO)c1 (stereo unspecified)	/	/	0	0.0	/

(continued)
SMILES	Mtb growth	YopH inh	Mtb betalactam	RecA splice inh	Arbovirus anti	others
S=c1nc(-c2ccccc2)oc2c1CCCC2	/	-22	2	-1.4	10
CCN(CC)S(=O)(=O)c1cc(C(=O)NC2=NCCS2)ccc1Cl	-1%	-1	-4	1.1	-7
O=C1CN(C(=O)COC(=O)c2ccccc2O)c2ccccc2N1	-5%	/	2	-0.3	/
CC1Cc2ccccc2N1C(=O)CSc1nnnn1C1CCCC1 (stereo unspecified)	/	-106	3	-0.3	0
Cc1ccc(NC(=O)CNC(=O)c2ccc(C)s2)nc1	/	/	-8	-1.0	/
CCCCC(CC)C(=O)NCCCN1CCN(CCCNC(=O)C(CC)CCCC)CC1 (stereo unspecified)	-11%	-26	-7	3.1	-6	Arbovirus anti repeat=2
N/C(=N\OC(=O)c1ccc(Cl)c(Cl)c1)c1cccnc1	7%	-16	6	-2.7	7
CC1(C)C2CCC1(C)C(OC(=O)CSc1nc(N)cc(=O)[nH]1)C2 (stereo unspecified)	0%	-28	6	-0.5	7
COc1cc2c(cc1OC)[C@H](C)N(C(=O)CSc1nc(O)c(C(C)C)c(=O)[nH]1)CC2	/	/	-1	-1.3	/
CCOC(=O)c1c(C)[nH]c(C2=NNC(=NC(C)COC)SC2)c1C (stereo unspecified)	-5%	/	4	2.0	2
C=CCc1cccc2cc(C(=O)Nc3ccc(F)cc3)c(=O)oc12	9%	-43	5	0.0	-8
O=C(CCn1c(=O)[nH]c2ccsc2c1=O)Nc1ccc(F)c(F)c1	0%	0	3	13	7
COc1ccc(-c2cc(C(=O)NCC3CCCO3)c3cc(C(C)C)ccc3n2)cc1 (stereo unspecified)	/	/	98	-0.6	/
CC(C)NC(=O)[C@@H]1C[C@@]1(C)[C@@H](NC(=O)OCc1ccccc1)c1ccccc1	-7%	-24	-6	-1.4	0
N#CCCN1CCC(NC(=O)OCc2ccccc2)CCC1=O (stereo unspecified)	/	/	-5	-0.2	/
CS(=O)(=O)N(CC(=O)NCc1ccco1)c1cccc([N+](=O)[O-])c1	1%	/	0	0.3	-1
C=CCc1ccccc1OCC(O)CNC (stereo unspecified)	-8%	-18	20	-3.7	5
CCOC(=O)C1=C(C)NC(=O)NC1c1c(OCC(=O)N2CCCCC2)ccc2ccccc12 (stereo unspecified)	8%	-54	-4	-0.4	5
CCOC(=O)N1CCN(C(=O)CCC(=O)N2CCOc3ccc(C)cc32)CC1	-13%	-10	-12	1.6	11
CCOc1ccc2nc(NC(=O)c3ccco3)sc2c1	/	/	-2	0.5	/
Cn1c(=O)c2c(nc(SCC(=O)NCC3CCCO3)n2Cc2ccc(F)cc2)n(C)c1=O (stereo unspecified)	2%	/	-4	-0.2	-3
Cc1cc(Br)cc(/C=N/NC(=O)c2ccc3c(c2)OCO3)c1O	/	/	3	1.2	/
CC[C@@]12C(=O)N(c3cccc(C)c3)C(=O)N1[C@H](c1ccc(Br)cc1)[C@@H]1C(=O)N(C(C)(C)C)C(=O)[C@@H]12	/	/	-3	5.8	/
CC(=O)N(CCCN(C)C)Cc1ccccn1	-11%	/	-6	1.0	/
COc1ccc(/C=N/NC(=O)CNC(=O)/C=C/c2ccco2)cc1OC	/	/	-4	-4.0	/
Cc1cc(C)c(NC(=O)c2ccc3c(c2)CCN3S(C)(=O)=O)c(C)c1	/	/	-4	-0.9	/
COc1ccc(-c2c(C(=O)O)c(-c3ccccc3)cn2C)cc1	/	/	-1	-0.4	/
Cc1ccc(NC(=S)N=Nc2c(O)n(C)c3ccc(S(=O)(=O)N4CCOCC4)cc23)cc1	-10%	-12	/	14	-25
Cc1ccc(S(=O)(=O)N(C)Cc2ccc(-c3nnco3)cc2)cc1	-4%	4	7	-3.6	-7
O=C(O)CN1C(=O)/C(=C\c2ccccc2OCc2ccc(Cl)cc2)SC1=S	/	/	4	3.0	/
O=C(NCc1ccccn1)Nc1cccc([N+](=O)[O-])c1	/	/	-10	0.3	/
CCc1ccc(/C=C2\SC(N3CCCC3)=NC2=O)cc1	-4%	/	-9	7.3	-1
N#C/C(C(=O)NCc1ccccc1)=C1\SC(CCO)C(=O)N1c1ccccc1 (stereo unspecified)	-1%	-37	-2	2.0	-4
CC(C)CC(C(=O)NC(C)(C)C)N(CC1CCCO1)C(=O)c1snc(C(N)=O)c1N (stereo unspecified)	-9%	/	1	-1.8	-4
Cc1ccc(-c2nc3c(c(=O)[nH]c(=O)n3Cc3ccccc3)n2C)s1	-3%	/	-10	1.3	/
O=C(COC(=O)c1cccc(O)c1)NCc1ccc2c(c1)OCO2	-2%	/	-3	-0.5	/
COc1ccc(N(C(=O)CNC(=O)c2cccs2)C(C(=O)NC2CCCC2)c2cccnc2)cc1 (stereo unspecified)	-3%	/	-4	-6.7	-1
O=C(O)CCCNS(=O)(=O)Cc1ccccc1	7%	-12	1	0.0	7
CCn1c(CSCc2ccc(F)cc2)nnc1SCC(=O)N1CCN(c2ccccc2)CC1	10%	-6	5	-1.6	1
CC(CN1CCOCC1)OC(=O)COc1ccc(F)cc1 (stereo unspecified)	-9%	-25	1	0.1	1
Cc1ccc(Oc2nc(C(F)(F)F)nc3ccccc23)cc1	10%	-33	-10	2.5	-6
CC(C)(C)N1CC(OC(N)=O)C1	-2%	/	-11	0.0	/
CCCNC(=O)CN(Cc1ccccc1F)S(=O)(=O)c1ccc(C)cc1	-1%	-17	-10	-1.3	3
COCC1CCN(C(=O)CCc2nnc(C3(c4ccc(Cl)cc4)CCC3)o2)C1 (stereo unspecified)	/	/	?	1.4	/
Cc1ccc(C(=O)CNc2nc3c(c(=O)[nH]c(=O)n3C)n2Cc2ccccc2)cc1	2%	-29	-1	-0.4	5
CC(CNC(=O)c1ccc(Br)o1)NC(=O)c1ccc(Br)o1 (stereo unspecified)	-1%	-43	-9	-2.8	2	Arbovirus anti repeat=1
COc1cc(/C=C/C(=O)NCC(=O)N2CCC(N(C)CCN3CCOCC3)CC2)ccc1OC(C)C	8%	/	0	-2.7	-2
CCc1ccc(NC(=O)CSc2nnc(COc3ccc4c(c3)CCCC4)o2)cc1	42%	-6	81	0.5	2
Cc1ccc(C)c(NC(=O)CN(C)C(=O)c2cc3ccccc3o2)c1	-2%	/	-3	-2.8	9
O=C(CSc1nnc(NC(=O)c2cccc(F)c2)s1)NC1CCCC1	/	/	3	1.9	/
Cc1c(CC(=O)O)c(=O)oc2c(C)c3occ(-c4ccc(Br)cc4)c3cc12	/	/	?	10	/
CCOC(=O)c1c(NC(=O)c2c(Br)cnn2CC)sc(C)c1C	-4%	-82	3	2.7	-2
Cc1nc2ccccc2cc1C(=O)N/N=C/c1ccccc1[N+](=O)[O-]	1%	-23	2	0.2	16
COc1ccc(/C=C\c2onc(C)c2S(=O)(=O)N2CCC(C(=O)NCc3ccco3)CC2)cc1	3%	/	-7	-0.1	/
O=C(Nc1ccccc1C(=O)NC(Cc1ccccc1)C(=O)O)c1ccccc1 (stereo unspecified)	0%	/	0	1.7	-4
Nc1ccccc1SCc1csc(-c2ccc(Cl)cc2)n1	-7%	/	13	12	/
Cc1cc(Nc2cccc(Cl)n2)n(-c2ccccc2)n1	6%	-4	-2	-0.8	5
O=C(NCc1ccccc1)C(c1ccccc1)N(C(=O)c1csnn1)C1CCCC1 (stereo unspecified)	/	/	4	1.1	/
CSc1ccc(S(=O)(=O)NCC(=O)OCC(=O)N(C)Cc2ccccc2)cc1[N+](=O)[O-]	/	/	-12	-1.7	/
COc1ccc(OC)c(NC(=O)C2CC(=O)N(c3ccccc3)C2)c1 (stereo unspecified)	-9%	-5	-6	-1.7	-5

Remaining list, next part:
SMILES	Mtb growth	YopH inh	Mtb betalactam	RecA splice inh	Arbovirus anti	others
O=C1c2ccccc2C(=O)N1c1ncn[nH]1	-6%	/	-2	-2.1	/
CC(C)c1nccn1CCC(=O)O	-4%	-15	-6	0.0	-1
CC1(C)CC(NC(=O)c2ccccc2Cl)CC(C)(C)N1	-7%	-40	-4	-1.4	-1
CCOC(=O)c1nn(-c2ccccc2F)c(C)c1C(C)=O	5%	-21	-8	1.7	5
CCn1c(=O)c2cc(C(=O)N(C)CC(OC)OC)sc2c2ccccc21	/	/	-11	0.7	/
CCCC(=O)Nc1ccccc1NC(=O)c1cc(OC)c(OC)c(OC)c1	-6%	-5	-2	0.5	0
COc1cc2c3c(c1)C1(C(=O)N3C(C)(C)C=C2C)C(C#N)=C(N)Oc2cc(C)oc(=O)c21 (stereo unspecified)	3%	-23	/	-1.2	6
O=C(c1ccco1)N1CCN(C(=O)C(Cc2ccccc2)NS(=O)(=O)c2cccs2)CC1 (stereo unspecified)	-12%	-30	-5	/	11
CC(C)Cc1cc(C(=O)Nc2sc3c(c2C#N)CCC3)no1	27%	-28	19	0.7	-12
COC(=O)c1cccc(NC(=O)NC2CCCN2S(=O)(=O)c2ccc(Cl)cc2)c1 (stereo unspecified)	12%	12	/	3.3	-10
O=C(Nc1ccccc1Cl)C(=O)c1cn(CC(=O)N2CCOCC2)c2ccccc12	/	/	4	1.7	/
COc1ccc(/C=N\NC(=O)CCc2c(C)n[nH]c2C)c(OC)c1OC	-11%	-21	-7	-0.1	-9

Part of the list above in order of formula weight, largest number first.
SMILES	Mtb growth	YopH inh	Mtb betalactam	RecA splice inh	Arbovirus anti	others
COC(=O)c1cccc(NC(=O)NC2CCCN2S(=O)(=O)c2ccc(Cl)cc2)c1 (stereo unspecified)	12%	12	/	3.3	-10
CCn1c(=O)c2cc(C(=O)N(C)CC(OC)OC)sc2c2ccccc21	/	/	-11	0.7	/
COc1ccc(/C=N\NC(=O)CCc2c(C)n[nH]c2C)c(OC)c1OC	-11%	-21	-7	-0.1	-9
CCOC(=O)c1nn(-c2ccccc2F)c(C)c1C(C)=O	5%	-21	-8	1.7	5
O=C1c2ccccc2C(=O)N1c1ncn[nH]1	-6%	/	-2	-2.1	/

Screening data: PubChem BioAssay, several laboratories
